Source: PubChem (several laboratories)
A1 inh: inhibitors of the anti-apoptotic protein A1, read as caspase activation; MEF A1-2A-BIM cells, Caspase-Glo 3/7 luminescence, 3 h; percent of clofoctol response, vehicle zero; caspase activation, % (concentration not given with the values); actives 0.066% (n = 330,000); AID 2462;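 active = over half of replicate activation scores above 10%, or exactly half above 10 with the replicate mean above 10; inconclusive = replicate mean below 10 yet half the replicates above 10; inactive = over half of replicates below 10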;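 note: wells of about 30 µL received 50 nL stock; many hits fall short of the cut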
T cruzi inh: blocks replication of Trypanosoma cruzi. AID 1885. inhibition, % (no concentration beside the values). actives 1.4% (n = 300,000). T. cruzi beta-gal in NIH3T3, luminescence, 90 h;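 active = mean inhibition across valid replicates above about 55%, limit read from the data; inconclusive = mean below that limit but half or more replicates reach it; inactive = mean below it, under half of replicates reach it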;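 note: signal also drops with host cell toxicity which is not excluded here; 0% = plate median of DMSO wells and 100% = zero luminescence signal; higher percent means less beta-gal luminescence so fewer parasites; stock transfer was 50 nL into about 50 µL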
Beta apoptosis: beta cell apoptosis inhibition. INS-1E cytokine-induced death, ATP luminescence, 48 h; percent of positive-control rescue, neutral wells zero. actives 0.8% (n = 300,000). protection from apoptosis, % (test concentration not listed). AID 435005;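 active = all replicates at 75% or more, or half of them and the mean; inconclusive = half reach 75% but not the mean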;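 note: 0% = cytokine-treated negative control wells and 100% = positive control rescue; higher means more ATP so stronger rescue from cytokine killing; wells of about 40 µL received 100 nL stock; the first replicate is given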
RanGTP-Imp inh: disruptors of Ran-importin-beta complex formation – biochemical, FRET, CFP-Ran, YFP-importin-beta, homogeneous, primary screen. cell-free CFP-Ran/YFP-importin-beta FRET ratio. inhibition, % (no concentration beside the values). actives 1.1% (n = 300,000);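 active = most replicates above 15%; inconclusive = exactly half above 15%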;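 note: 0% = DMSO wells and 100% = Ran loaded with GDP instead of GTP; wells of about 40 µL received 100 nL stock; the first replicate is given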
Ecoli rRNA inh: inhibitors of bacterial rRNA selective over humanized ribosomes; E. coli WT GFP vs humanized-ribosome RFP mutants, fluorescence, 24 h; stronger effect = lower value; DMSO median 0, no signal -100; GFP signal change (wild-type ribosome), % (concentration not given with the values); actives 1.6% (n = 350,000);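 active = significant combined selectivity score with lowered wild-type GFP, culture density cut under 30%, mutant RFP and density less affected; inactive = any of these conditions unmet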; note: one replicate is shown; some compounds called inactive have numbers as strong as hits
Vif TR-FRET: inhibitors of Vif binding to APOBEC3G peptide, primary screen, biochemical, TR-FRET, GST-Vif 1-94, biotin-A3G peptide, dose response retest (AID 1117319); TR-FRET GST-Vif / biotin-A3G peptide binding; higher % means a stronger effect; test concentration not given here; strong numbers were not always called active; one-dose inhibition, %; IC50 in µM for titrated hits; actives 0.57% (n = 260,000);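 active = above the screen mean plus three standard deviations and confirmed in dose response; inconclusive = results disagree or hit not tested in dose response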;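 note: Vif residues 1-94 fused to GST binding biotinylated APOBEC3G peptide 110-148; 0% = full assay without inhibitor and 100% = GST in place of GST-Vif; retest series ran down from 100 µM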
MLL AF4-AF9 inh: inhibitors of human MLL-AF4/AF9 interaction | AlphaScreen, biotin-AF4 peptide binding to FLAG-AF9 | inhibition, % at 10 µM | actives 0.47% (n = 350,000) | AID 651704;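 active = every replicate reaching a set inhibition limit, whatever the replicate mean, cut at about 25% in these data; inconclusive = mean inhibition reaches that limit but some replicates miss it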;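 note: 0% = plate neutral control median and 100% = total signal loss; the record names both 10 and 1 µM as test concentration; the first replicate is given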
Target sequence (P42568 whole entry, looked up): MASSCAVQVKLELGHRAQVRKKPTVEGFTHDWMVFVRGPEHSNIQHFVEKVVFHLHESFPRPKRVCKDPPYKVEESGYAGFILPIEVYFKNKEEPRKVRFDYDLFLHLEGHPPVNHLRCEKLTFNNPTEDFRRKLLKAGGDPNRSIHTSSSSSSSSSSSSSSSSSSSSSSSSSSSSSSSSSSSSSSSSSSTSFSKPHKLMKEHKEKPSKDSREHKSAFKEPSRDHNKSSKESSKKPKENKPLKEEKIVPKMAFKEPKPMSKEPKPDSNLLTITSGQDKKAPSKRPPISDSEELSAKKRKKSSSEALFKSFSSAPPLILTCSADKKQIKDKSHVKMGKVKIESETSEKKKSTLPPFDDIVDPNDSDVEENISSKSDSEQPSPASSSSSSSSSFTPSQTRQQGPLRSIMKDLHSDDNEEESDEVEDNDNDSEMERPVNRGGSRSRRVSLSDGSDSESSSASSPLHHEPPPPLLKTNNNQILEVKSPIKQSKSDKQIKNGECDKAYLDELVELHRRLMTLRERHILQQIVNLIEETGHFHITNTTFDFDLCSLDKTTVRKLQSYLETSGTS
Calb FLC: affects C. albicans growth with fluconazole. C. albicans CaCi-2 (fluconazole-resistant clinical isolate) + fluconazole, Alamar Blue growth, 48 h. growth inhibition, % (no concentration beside the values). actives 0.57% (n = 300,000);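 active = most replicates above 75%; inconclusive = exactly half above 75%; inactive = most below 75%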;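 note: all wells also contain fluconazole at 8 µg/ml as a sub-toxic cotreatment; 0% = median of DMSO wells and 100% = median of geldanamycin control wells; wells of about 8 µL received 7.5 nL stock; the first replicate is given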
Ecoli rRNA inh OD600: also measured in Ecoli rRNA inh; calls as there; OD600 change, %; measured here: OD600 growth;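 optical density of the mix in the first replicate; 0 = DMSO median and -100 = no signal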
Ecoli rRNA inh RFP: recorded beside Ecoli rRNA inh, whose call it bears; RFP signal change, %; measured here: RFP humanized mutant strains;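 first replicate; 0 = DMSO median and -100 = no signal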
The depositor's hits bear a star; & = joins results of further samples.

Results for COC(=O)CN1C(=O)CSc2ncccc21 ?
A1 inh: 1.3; T cruzi inh: -34; Beta apoptosis: 0; RanGTP-Imp inh: -1.0; Vif TR-FRET: 2%; Calb FLC: 0

How did O=C(Nc1ccc(F)cc1F)NC1CCCc2ccccc21 (stereo not given) do in these assays?
A1 inh: 0.2; T cruzi inh: 5; Beta apoptosis: 0; RanGTP-Imp inh: 5.3; Ecoli rRNA inh: 0; Vif TR-FRET: -3%; MLL AF4-AF9 inh: -0.4; Calb FLC: -3; Ecoli rRNA inh OD600: -1; Ecoli rRNA inh RFP: 0.7

Results for Fc1ccccc1CN1CCCC(NC2CCC2)C1 (stereo not given) ?
A1 inh: -0.9; T cruzi inh: 2; RanGTP-Imp inh: -5.6; Ecoli rRNA inh: 6; MLL AF4-AF9 inh: 1.7; Calb FLC: -11; Ecoli rRNA inh OD600: 12; Ecoli rRNA inh RFP: 0.7

Results for Cc1[nH][nH]c(=O)c1N=Nc1ccccc1 ?
A1 inh: -2.9; T cruzi inh: 5; Beta apoptosis: 1; RanGTP-Imp inh: -0.1; Vif TR-FRET: 0%; Calb FLC: -10

How did COc1ccccc1-c1cc(N)n(S(=O)(=O)c2ccc(F)c(C)c2)n1 do in these assays?
A1 inh: 0.1; T cruzi inh: 3; Beta apoptosis: 3; RanGTP-Imp inh: 0.4; Ecoli rRNA inh: 16; Vif TR-FRET: inconclusive; MLL AF4-AF9 inh: -4.0; Calb FLC: -7; Ecoli rRNA inh OD600: 17; Ecoli rRNA inh RFP: 3.1

Results for Cc1ccc(-c2nnn(CC(=O)N(CC(=O)NC3CCCC3)c3ccc(F)c(Cl)c3)n2)o1 ?
A1 inh: 0.5; T cruzi inh: 5; Beta apoptosis: 9; RanGTP-Imp inh: 0.4; Ecoli rRNA inh: 3; Vif TR-FRET: 0%; Calb FLC: 0; Ecoli rRNA inh OD600: 3; Ecoli rRNA inh RFP: 0.0

What do the screens show for `CC(=O)c1cn(-c2ccc(Cl)cc2)c(=O)n(Cc2ccc(Br)cc2)c1=O`?
A1 inh: 0.4; T cruzi inh: -15; Beta apoptosis: 11; RanGTP-Imp inh: -0.3; Ecoli rRNA inh: 7; Vif TR-FRET: -1%; MLL AF4-AF9 inh: -0.7; Calb FLC: 14; Ecoli rRNA inh OD600: 17; Ecoli rRNA inh RFP: -0.5

What do the screens show for `CCOc1ccc(C(CC(=O)O)NC(=O)Cc2ccccc2)cc1OC` (stereo not given)?
A1 inh: -0.9; T cruzi inh: -10; Beta apoptosis: -5; RanGTP-Imp inh: -5.3; Ecoli rRNA inh: 14; Vif TR-FRET: -3%; MLL AF4-AF9 inh: -4.0; Calb FLC: 2; Ecoli rRNA inh OD600: 9; Ecoli rRNA inh RFP: -1.4

Results for Cc1ccc(NC(=O)c2ccccc2SCC(=O)N2CCCC2)cc1S(=O)(=O)N(C)C ?
A1 inh: 0.1; T cruzi inh: 5; Beta apoptosis: -3; RanGTP-Imp inh: -0.1; Ecoli rRNA inh: -2; Vif TR-FRET: -5%; MLL AF4-AF9 inh: 10; Calb FLC: 0; Ecoli rRNA inh OD600: -10; Ecoli rRNA inh RFP: -0.7

What do the screens show for `COc1ccc(S(=O)(=O)N2CCSCC2)cc1`?
A1 inh: 0.9; T cruzi inh: 6; Beta apoptosis: -1; RanGTP-Imp inh: -3.2; Ecoli rRNA inh: 9; Vif TR-FRET: 6%; MLL AF4-AF9 inh: -1.1; Calb FLC: 0; Ecoli rRNA inh OD600: 9; Ecoli rRNA inh RFP: 2.5

Results for Cc1cc(C)n(C(N)=NC(=O)c2ccc([N+](=O)[O-])cc2)n1 ?
A1 inh: -0.8; T cruzi inh: -12; Beta apoptosis: 0; RanGTP-Imp inh: 6.1; Ecoli rRNA inh: -2; Vif TR-FRET: 0%; MLL AF4-AF9 inh: 3.2; Calb FLC: 9; Ecoli rRNA inh OD600: -3; Ecoli rRNA inh RFP: -4.1

How did COc1ccc(CNC(=O)/C=C/c2ccc(S(=O)(=O)NCc3ccco3)cc2)cc1OC do in these assays?
A1 inh: 0.3; T cruzi inh: -10; Beta apoptosis: -4; RanGTP-Imp inh: 1.2; Calb FLC: -16

How did O=C(Cc1ccc(Cl)cc1)N/N=C1\CCCc2ccccc21 do in these assays?
A1 inh: 1.4; T cruzi inh: -26; RanGTP-Imp inh: -2.2; Vif TR-FRET: 0%; Calb FLC: -28

What do the screens show for `CCCOC(=O)Cc1n[nH]c(=O)[nH]c1=O`?
A1 inh: 1.1; T cruzi inh: -5; Beta apoptosis: 1; RanGTP-Imp inh: 5.2; Vif TR-FRET: -1%; Calb FLC: -2

Results for Cn1ncc(Cl)c1C(=O)NNC(=O)Nc1cccc2ccccc12 ?
A1 inh: 0.9; Beta apoptosis: -6; Ecoli rRNA inh: 1; MLL AF4-AF9 inh: 0.9; Calb FLC: 110*; Ecoli rRNA inh OD600: 0; Ecoli rRNA inh RFP: 0.6

Results for COc1cc2cc(C(=O)O)n(C)c2c(OC)c1OC ?
A1 inh: -0.7; T cruzi inh: -11; Beta apoptosis: -2; RanGTP-Imp inh: 1.5; Vif TR-FRET: -1%; MLL AF4-AF9 inh: -3.1; Calb FLC: -17

What do the screens show for `CCn1cc([N+](=O)[O-])c(C(=O)Nc2c(C)nn(Cc3c(F)c(F)c(F)c(F)c3F)c2C)n1`?
A1 inh: 0.2; T cruzi inh: -10; Beta apoptosis: -5; RanGTP-Imp inh: -2.6; Ecoli rRNA inh: -1; Vif TR-FRET: -3%; MLL AF4-AF9 inh: -22; Calb FLC: -1; Ecoli rRNA inh OD600: 12; Ecoli rRNA inh RFP: -6.6

What do the screens show for `CN(C)S(=O)(=O)c1cccc(C(=O)OCC(=O)c2ccc3c(c2)NC(=O)CO3)c1`?
A1 inh: -0.3; T cruzi inh: -20; Beta apoptosis: -6; RanGTP-Imp inh: 1.0; Ecoli rRNA inh: -27*; Vif TR-FRET: -9%; MLL AF4-AF9 inh: 2.8; Calb FLC: 4; Ecoli rRNA inh OD600: -13*; Ecoli rRNA inh RFP: 1.6*

What do the screens show for `C=CCOc1ccc2ccccc2c1/C=N/O`?
A1 inh: -0.4; T cruzi inh: -13; Beta apoptosis: -4; RanGTP-Imp inh: -10; Vif TR-FRET: -1%; Calb FLC: -2

How did CC(C)(Oc1ccc(Cl)cc1)C(=O)NC1CCN(Cc2ccccc2)CC1 do in these assays?
A1 inh: -0.3; T cruzi inh: 41; Beta apoptosis: 5; RanGTP-Imp inh: 0.9; Ecoli rRNA inh: 1; Vif TR-FRET: 1%; MLL AF4-AF9 inh: 4.0; Calb FLC: -6; Ecoli rRNA inh OD600: -1; Ecoli rRNA inh RFP: 2.4

What do the screens show for `COc1ccc(-c2cc(C(=O)N3CC4(C)CC3CC(C)(C)C4)no2)cc1` (stereo not given)?
A1 inh: -0.5; T cruzi inh: 14; Beta apoptosis: 0; RanGTP-Imp inh: -6.9; Vif TR-FRET: 9%; Calb FLC: 1

How did C/C(=N\NS(=O)(=O)c1cccc([N+](=O)[O-])c1)c1cc2ccccc2o1 do in these assays?
A1 inh: -0.5; T cruzi inh: -12; Beta apoptosis: 5; RanGTP-Imp inh: 0.5; Vif TR-FRET: -2%; Calb FLC: 8

What do the screens show for `O=C1NC(Cc2ccccc2)C(=O)Nc2ccc(Br)cc21` (stereo not given)?
A1 inh: 0.5; T cruzi inh: -4; Beta apoptosis: -5; RanGTP-Imp inh: -2.0; Ecoli rRNA inh: -8; Vif TR-FRET: -3%; MLL AF4-AF9 inh: -3.1; Calb FLC: -3; Ecoli rRNA inh OD600: -7; Ecoli rRNA inh RFP: -2.2

How did O=C(CSc1ncnc2sc3c(c12)CCCC3)N1CCC(c2noc3ccc(F)cc23)CC1 do in these assays?
A1 inh: 0.2; T cruzi inh: 19; Beta apoptosis: 4; RanGTP-Imp inh: 7.0; Ecoli rRNA inh: 18; Vif TR-FRET: 2%&-59%; MLL AF4-AF9 inh: 2.1; Calb FLC: -17; Ecoli rRNA inh OD600: 11; Ecoli rRNA inh RFP: -7.0

What do the screens show for `COc1ccc2c(C)c(C(=O)N3CC[C@@H](N4CCC(O)CC4)[C@H](O)C3)oc2c1`?
A1 inh: 0.0; T cruzi inh: -14; Beta apoptosis: -5; RanGTP-Imp inh: 16*; Ecoli rRNA inh: 12; Vif TR-FRET: 6%; MLL AF4-AF9 inh: 3.3; Calb FLC: -8; Ecoli rRNA inh OD600: 9; Ecoli rRNA inh RFP: 4.2

How did Cc1ccccc1N1CCN(C(=S)c2ccc(-c3ccc([N+](=O)[O-])cc3)o2)CC1 do in these assays?
A1 inh: -0.3; T cruzi inh: 12; Beta apoptosis: 0; RanGTP-Imp inh: 9.2; Ecoli rRNA inh: -3; MLL AF4-AF9 inh: -6.4; Calb FLC: -5; Ecoli rRNA inh OD600: 3; Ecoli rRNA inh RFP: -1.1

How did CCc1ccc2c(CC(=O)NNC(=O)c3ccncc3)coc2c1 do in these assays?
A1 inh: 0.4; Beta apoptosis: 7; Vif TR-FRET: 0%; MLL AF4-AF9 inh: -2.5

What do the screens show for `CCOC(=O)c1cccc(NC(=O)CSc2nnc(-c3cccnc3)n2CC)c1`?
A1 inh: 1.1; T cruzi inh: 4; Beta apoptosis: 6; RanGTP-Imp inh: 1.1; Vif TR-FRET: -5%&-4%; Calb FLC: -7

How did Cc1ccc(N(C(=O)c2snc(C(N)=O)c2N)C(C(=O)NCC2CCCO2)c2ccc(C)o2)c(C)c1 (stereo not given) do in these assays?
A1 inh: 0.6; T cruzi inh: 19; Beta apoptosis: -1; RanGTP-Imp inh: 6.0; Ecoli rRNA inh: 0; MLL AF4-AF9 inh: 7.2; Calb FLC: 3; Ecoli rRNA inh OD600: -2; Ecoli rRNA inh RFP: -2.5

Results for CCOc1ccc(C(=O)NCC(=O)NCCCSc2ccccc2)cc1OCC ?
A1 inh: 0.5; T cruzi inh: 18; Beta apoptosis: -3; RanGTP-Imp inh: 3.6; Ecoli rRNA inh: -7; Vif TR-FRET: -5%; MLL AF4-AF9 inh: 2.3; Calb FLC: -6; Ecoli rRNA inh OD600: -10; Ecoli rRNA inh RFP: 6.8

What do the screens show for `CCn1c(Cc2ccccc2)nnc1SCC(=O)Nc1ccc2c(c1)OCCO2`?
A1 inh: -0.5; T cruzi inh: 5; Beta apoptosis: 12; RanGTP-Imp inh: -3.5; Vif TR-FRET: 30%; Calb FLC: -17

What do the screens show for `Nc1ccc(C(=O)OCC(=O)N2CCc3ccccc3C2)cc1[N+](=O)[O-]`?
A1 inh: 0.3; T cruzi inh: 10; Beta apoptosis: -5; RanGTP-Imp inh: 1.5; Ecoli rRNA inh: -23*; MLL AF4-AF9 inh: -2.6; Calb FLC: -41; Ecoli rRNA inh OD600: -5.9*; Ecoli rRNA inh RFP: 5.6*

What do the screens show for `c1ccc(-c2nc3c4ccccc4ccn3c2CN2CCOCC2)cc1`?
A1 inh: -3.2; T cruzi inh: 18; Beta apoptosis: 0; RanGTP-Imp inh: 0.1; Ecoli rRNA inh: -29*; Vif TR-FRET: -9%; MLL AF4-AF9 inh: -11; Calb FLC: 4; Ecoli rRNA inh OD600: -1.2*; Ecoli rRNA inh RFP: 9.7*

The list is partial. The share of hits here may be higher or lower than overall.
